HIV Env fusion: blocks HIV Env-driven cell-cell fusion; AID 651610; inhibition, % at 12.3 µM; actives 1.1% (n = 360,000); HeLa-JRFL Env/CEM21 cell fusion, luciferase;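 active means mean replicate inhibition score of at least 50 and every replicate individually at or above 50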;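 further: 0% = plate neutral controls and 100% = maraviroc near 300 nM; one replicate is shown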
Rce1 inhib: blocks yeast Ras-converting enzyme; Q03530; yeast membranes, quenched prenylated peptide cleavage fluorescence; calls only; actives 0.27% (n = 290,000); AID 2563;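 active means fall in fluorescence gain of 50% or more versus controls, with final raw signal at or below 3038400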;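 further: plate controls were neutral control wells for no effect and wells lacking membranes for full effect; tested at 10 µM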
Target sequence (Q03530 whole entry, looked up): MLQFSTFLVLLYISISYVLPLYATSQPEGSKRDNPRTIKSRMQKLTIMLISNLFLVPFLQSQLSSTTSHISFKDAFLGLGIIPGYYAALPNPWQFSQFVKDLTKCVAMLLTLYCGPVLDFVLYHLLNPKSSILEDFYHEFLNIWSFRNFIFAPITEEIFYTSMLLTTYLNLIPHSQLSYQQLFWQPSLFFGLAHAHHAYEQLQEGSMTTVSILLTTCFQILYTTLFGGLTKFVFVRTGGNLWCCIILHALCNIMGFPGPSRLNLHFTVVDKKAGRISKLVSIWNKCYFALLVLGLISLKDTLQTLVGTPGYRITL
eIF4H inh: inhibitors of RNA binding by human eIF4H. Q15056. eIF4H fluorescence polarization binding assay. inhibition, % at 35 µM. actives 0.94% (n = 290,000);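 active means 50% or more with normal probe brightness, or confirmed in later tests; about a fifth of its hits are not listed in these tables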;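 further: calls also rest on retests at 20 µM and on dose response follow-up; 0% = protein and probe with vehicle and 100% = probe without protein; strong numbers were not always called active; many hits fall short of the cut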
MT1-MMP act inh: inhibitors of human MT1-MMP activation | P50281 | HT1080 RFP-PRO-GFP cells, GFP/RFP ratio fluorescence, overnight; percent of plate control window, DMSO zero | GFP/RFP ratio change, % at 20 µM | actives 0.061% (n = 360,000);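 active means GFP/RFP ratio change of at least 30% with cell ATP level not reduced by more than half and red fluorescence within 50% of control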; further: strong numbers were not always called active
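Test system: HT1080 RFP-PRO-GFP cells; Benchmarks: DMSO and RFP-L50D-GFP cell wells; Timing: cells overnight before dosing, compound overnight, 37 °C, 5% CO2; Compound: one 20 µM compound dose with 1% DMSO; Read-out: GFP/RFP fluorescence ratio.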
UUG fidelity: yeast start codon fidelity modulation | S. cerevisiae UUG-firefly luciferase reporter, luminescence/redox ratio | activity score, % at 18.7 µM | actives 0.13% (n = 350,000);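 active means replicate mean at a twofold rise or more, about +100% in these data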;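 further: firefly luciferase made from a UUG start codon reports start codon fidelity; reporter light over untreated wells divided by growth signal over untreated wells; some hits fall short of that in this replicate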
PABP FP inh: PABP-poly(A) binding inhibition. P11940. PABP-poly(A) RNA binding, fluorescence polarization. inhibition, % at 35 µM. actives 1% (n = 290,000). AID 2014;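 active means 50% or more with normal probe brightness, or confirmed in later tests; about a fifth of its hits are not listed in these tables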;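 further: calls also rest on retests at 20 µM and on dose response follow-up; controls were probe without protein and protein plus probe with vehicle; some compounds called inactive have numbers as strong as hits; many hits fall short of the cut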
Target sequence (P11940 whole entry, looked up): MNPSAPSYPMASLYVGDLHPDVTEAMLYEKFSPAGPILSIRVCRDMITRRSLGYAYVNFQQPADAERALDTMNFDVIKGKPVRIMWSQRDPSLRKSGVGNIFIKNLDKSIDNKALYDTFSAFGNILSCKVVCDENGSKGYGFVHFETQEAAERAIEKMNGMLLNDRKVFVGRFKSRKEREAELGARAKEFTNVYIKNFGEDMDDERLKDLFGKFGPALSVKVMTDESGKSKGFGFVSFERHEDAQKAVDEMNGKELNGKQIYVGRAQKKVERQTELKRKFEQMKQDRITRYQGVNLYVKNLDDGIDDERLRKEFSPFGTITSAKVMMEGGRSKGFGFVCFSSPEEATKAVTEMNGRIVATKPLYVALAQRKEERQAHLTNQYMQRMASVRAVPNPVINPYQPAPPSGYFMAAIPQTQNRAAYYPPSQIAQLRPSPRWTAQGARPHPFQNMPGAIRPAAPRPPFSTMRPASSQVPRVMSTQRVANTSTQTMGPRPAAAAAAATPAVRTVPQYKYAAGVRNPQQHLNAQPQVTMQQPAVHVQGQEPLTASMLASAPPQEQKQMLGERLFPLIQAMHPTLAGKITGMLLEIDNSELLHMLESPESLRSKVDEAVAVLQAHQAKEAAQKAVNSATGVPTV
CSC inhib: blocks cancer stem cells; cancer stem cell-like cells viability, luminescence; inhibition, % at 7.5 µM; actives 1.1% (n = 300,000);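 active means mean at 75% or more and at least half the replicates too; tested in HMLE shEcad cells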;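 further: 0% = median of negative and 100% = median of positive control wells; the first replicate is given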
eIF4H inh retest: recorded beside eIF4H inh, whose call it bears; inhibition, %; compound at 20 µM; confirmation average;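 mean of two retest wells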
PABP FP inh retest: also measured in PABP FP inh; calls as there; inhibition, %; compound at 20 µM; confirmation repeats;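 mean of two retest wells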
MT1-MMP act inh RFP: second read-out of MT1-MMP act inh, no call of its own (marks repeat the call); RFP signal change, %; measured here: RFP expression control read;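 0 = vehicle wells; hits needed this value within 50% of zero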
* hit, by the source's call; i = inactive; . = not tested or not shown.

SMILES	HIV Env fusion	Rce1 inhib	eIF4H inh	MT1-MMP act inh	MT1-MMP act inh RFP	UUG fidelity	PABP FP inh	CSC inhib	others
Cc1ccc(CCNS(=O)(=O)c2ccc(C)cc2)cc1	-31	i	8	7	2	-4	-17	-10
COc1cccc(C(=O)COc2ccc(NC(=O)c3ccccc3)cc2)c1	.	i	-5	5	4	-23	5	.
C/C(Cn1nnc([N+](=O)[O-])n1)=N\NC(=O)c1cccc(Cl)c1	.	i	2	-3	-3	-7	-2	-6
O=C(CSc1nnc(NC(=O)c2c(F)cccc2F)s1)NC1CC1	3	i	-11	1	2	-11	2	-10
N#C/C(=C\c1ccc(-c2nc3ccccc3s2)o1)C(N)=O	-24	i	-6	-21	-4	.	12	-3
O=C(NCc1ccccn1)C12CC3CC(CC(C3)C1)C2	6	i	-4	-1	2	.	1	2
CC(C)NC(=O)Nc1nnc([C@H]2C[C@H](O)[C@@H](CO)O2)s1	4	.	.	5	6	-22	.	.
O=C(OCCCCN1C(=O)c2ccccc2C1=O)c1n[nH]c2ccccc12	-27	i	6	6	-1	.	0	2
S=c1[nH]ccn1Cc1ccccc1	1	i	-5	2	2	5	2	-11
COc1ccccc1/C=C/C(=O)N1CCN(S(=O)(=O)c2cccs2)CC1	15	.	.	-3	0	-16	.	-28
CC1=NN(c2ccccc2)C(=O)C1N=Nc1cccc(O)c1 (stereo unspecified)	-61	i	4	8	-9	-32	-1	42
COc1ccc(CCC(=O)Nc2ncc(C)s2)cc1	-135	i	-7	4	2	.	-4	-1
O=C1OC(C(=O)Nc2ccccc2)Cc2ccccc21 (stereo unspecified)	-20	i	-8	1	2	-8	-6	5
COc1ccc(OC)c(NS(=O)(=O)c2ccc(-n3cccn3)cc2)c1	5	.	.	2	-4	-5	.	.
CCn1nc(C(=O)Nc2ccccc2C)c(Cl)c1Cl	-135	i	-11	-2	-3	-7	5	-7
Cn1c(SCCN2CCOCC2)nc2sc3c(c2c1=O)CCCC3	-10	i	-12	2	0	-11	-12	-8
COc1ccc(S(=O)(=O)Nc2ccccc2C(=O)OC2CCCN(C)C2)cc1OC (stereo unspecified)	.	i	12	-5	0	-15	-2	21
O=C(COc1coc(CN2CCN(c3ccc(F)cc3)CC2)cc1=O)Nc1ccccc1	.	i	.	-5	-16	-19	.	-1
COc1ccc(C2C(C(C)=O)=C(O)C(=O)N2c2ccc(Br)cn2)cc1 (stereo unspecified)	.	i	-6	3	-2	-27	-1	-24
CN1CCN(Cc2c(C#N)c3ccccc3n2C)CC1	9	i	-1	7	7	-11	-3	10

The final two entries of the section before come first, to join the parts:
SMILES	HIV Env fusion	Rce1 inhib	eIF4H inh	MT1-MMP act inh	MT1-MMP act inh RFP	UUG fidelity	PABP FP inh	CSC inhib	others
COc1ccc(C2C(C(C)=O)=C(O)C(=O)N2c2ccc(Br)cn2)cc1 (stereo unspecified)	.	i	-6	3	-2	-27	-1	-24
CN1CCN(Cc2c(C#N)c3ccccc3n2C)CC1	9	i	-1	7	7	-11	-3	10
CCOC(=O)c1c(NC(=O)CSc2nnc(-c3c[nH]c4ccccc34)n2C)sc2c1CCCC2	26	i	-10	0	-12	-11	0	12
CCOC(=O)c1cc2c(C)n(-c3ccc(OCC)cc3)c(C)c2ccc1=O	61*	i	3	1	0	-10	23	-4
O=C(NCc1nnc(SCC(=O)N2CCCCCC2)o1)c1ccco1	9	i	-1	-2	3	-3	2	-4
COC(=O)[C@@]12CCCN1[C@H](c1ccc(-c3ccccc3)cc1)[C@H]1C(=O)N(C)C(=O)[C@H]12	-2	i	.	4	1	-4	.	2
COc1ccccc1Nc1nnc(SCC(=O)c2c(N)n(C3CC3)c(=O)[nH]c2=O)s1	.	.	.	3	0	-10	.	6
Cc1ccc2c(c1)N(C(=O)CCC(=O)NCc1ccccc1)CC(C)O2 (stereo unspecified)	-16	i	7	2	2	-16	0	.
COc1ccccc1NC(=O)COC(=O)Cn1cnc2c1c(=O)n(C)c(=O)n2C	2	.	.	-1	7	-2	.	13
NC(=O)c1ccccc1NC(=O)Nc1cccc(Cl)c1Cl	13	i	1	-1	0	-4	12	-4
CN=c1scc(-c2ccc(Cl)cc2)n1C	-20	i	10	2	7	.	16	-1
COc1cccc(C2=NN(C(=O)C3CC3)C(O)(C(F)(F)F)C2)c1 (stereo unspecified)	6	.	.	-3	4	5	.	.
O=C(OCc1cccc(C(F)(F)F)c1)c1ccc[nH]c1=O	11	i	3	3	5	-5	-9	.
N#CCCn1cc(C(=O)N2CCCCC2)c(-c2ccc([N+](=O)[O-])cc2)n1	7	i	-9	4	3	-5	-2	-9
NS(=O)(=O)c1ccc(S(=O)(=O)N2CCCC(c3ccccc3)C2)cc1 (stereo unspecified)	14	.	.	5	-11	2	.	.
CCOc1ccc(C(=O)NC(C)C2COc3ccccc3O2)cc1 (stereo unspecified)	-2	i	-4	-2	-1	1	3	-28
CC(=O)N1CCN(c2ccc(NS(=O)(=O)c3ccc(C)cc3)cc2)CC1	3	i	-3	1	3	3	3	3
Cc1ccc(-c2nc(CS(=O)(=O)CC(=O)NCc3ccc4c(c3)OCO4)c(C)o2)cc1	2	i	-8	0	1	0	-1	-4
Cc1ccccc1NC(=O)CSc1n[nH]c(-c2ccccn2)n1	-16	i	8	-1	0	-29	-10	15
Cn1c2ccccc2c2nn(-c3ccccc3)c(=O)cc21	-22	i	5	2	-2	6	7	3
CC(C)OCCCN1C(=O)c2[nH]nc(-c3ccccc3O)c2C1c1cccc(Cl)c1 (stereo unspecified)	-17	i	5	-1	-5	.	8	21
COc1ccc(N2CCN(C(=O)CSc3nnc(NC(=O)C4CCC4)s3)CC2)cc1	3	i	2	1	-3	-13	4	-6

Some of these compounds in order of count of non-hydrogen atoms, high to low.
SMILES	HIV Env fusion	Rce1 inhib	eIF4H inh	MT1-MMP act inh	MT1-MMP act inh RFP	UUG fidelity	PABP FP inh	CSC inhib	others
Cc1ccc(-c2nc(CS(=O)(=O)CC(=O)NCc3ccc4c(c3)OCO4)c(C)o2)cc1	2	i	-8	0	1	0	-1	-4
CC(=O)N1CCN(c2ccc(NS(=O)(=O)c3ccc(C)cc3)cc2)CC1	3	i	-3	1	3	3	3	3
CCOc1ccc(C(=O)NC(C)C2COc3ccccc3O2)cc1 (stereo unspecified)	-2	i	-4	-2	-1	1	3	-28
COc1cccc(C2=NN(C(=O)C3CC3)C(O)(C(F)(F)F)C2)c1 (stereo unspecified)	6	.	.	-3	4	5	.	.
NC(=O)c1ccccc1NC(=O)Nc1cccc(Cl)c1Cl	13	i	1	-1	0	-4	12	-4

The results go on:
SMILES	HIV Env fusion	Rce1 inhib	eIF4H inh	MT1-MMP act inh	MT1-MMP act inh RFP	UUG fidelity	PABP FP inh	CSC inhib	others
CC(=O)c1ccc(NC(=O)c2cc(-c3cccs3)on2)cc1	-12	i	-3	2	3	3	1	-4
Cc1ccc(N2CC(C(=O)N3CCN(Cc4ccc5c(c4)OCO5)CC3)CC2=O)cc1 (stereo unspecified)	8	i	-2	3	-1	-19	7	-1
O=C(c1ccco1)N1CCN(C(c2ccccc2)c2nnnn2C2CCCC2)CC1 (stereo unspecified)	.	i	7	1	-1	-14	8	-7
CC(c1ccccc1)N1CCN(C(=O)CCl)CC1 (stereo unspecified)	20	i	-11	-2	-1	-13	-4	4
CC(=O)Oc1ccccc1N1C(=O)c2ccc(C(=O)O)cc2C1=O	-31	i	21	-9	6	-2	37	-2
Cc1ccc(-c2n[nH]c(=S)n2/N=C/c2cc3c(cc2[N+](=O)[O-])OCO3)cc1	-119	i	30	7	-2	-20	16	-21
CCN(c1ccccc1)S(=O)(=O)c1ccc(C(=O)N(CCCN(C)C)c2nc3cc4c(cc3s2)OCO4)cc1	17	i	4	-5	-3	8	16	5
COC(=O)C1=CN(C(C)C)C=C(C(=O)OC)C1c1cc2c(cc1Br)OCO2	-66	i	-1	-6	-2	-5	-2	29
N#C/C(=C\c1cccs1)C(=O)c1ccccc1Cl	-173	i	-11	.	.	.	1	31
O=C(c1ccccc1)c1c(O)nc(-c2ccccc2)n(-c2ccccc2)c1=O	.	i	0	4	6	-7	-3	-9
CC(C)C[C@@H](NC(=O)C1CCC(CNC(=O)[C@@H]2CCCN2C(=O)OC(C)(C)C)CC1)C(=O)O (stereo partly specified)	-23	i	5	1	-3	9	-1	-5
CC1=CC(c2ccccc2)n2nc(NC(=O)CCC(=O)O)nc2N1 (stereo unspecified)	-6	i	-6	-8	-5	-32	-8	-24
COc1ccc(Cc2nnc(NC(=O)CS(=O)(=O)Cc3ccccc3)s2)cc1	-13	i	20	2	4	-10	7	-12
CN(CC(=O)Nc1cccc(F)c1)C(=O)c1cccc(S(=O)(=O)N2CCN(c3ccccc3)CC2)c1	-4	i	-14	1	-19	-25	6	-29
Cc1ccccc1CN1C(=O)C(O)(CC(=O)c2ccncc2)c2ccccc21 (stereo unspecified)	.	i	1	5	5	.	6	-10
CC(C)(C)c1nnc(NC(=O)CCn2cnc3ccccc3c2=O)s1	-21	i	-4	2	0	.	-3	-7
COc1ccc(CCNc2oc(COc3ccc(F)cc3)nc2C#N)cc1	14	.	1	-5	-6	-8	6	.
O=C(CSc1nnnn1-c1ccccc1)N1CCN(C(=O)c2ccco2)CC1	.	i	6	-1	5	-10	-2	-7
O=C(c1cc2cc3ccc(Cl)cc3nc2o1)N1CCCCCC1	.	i	-5	2	1	-7	-5	.
Cc1ccc(-c2[nH]c(=O)n3ccncc23)s1	-99	i	.	-5	-3	-11	.	-13
COc1ccc(/C(C)=N/OCC(=O)N2CC3(C)CC2CC(C)(C)C3)cc1 (stereo unspecified)	.	i	4	1	-3	8	16	37
Cc1ccc(NC(=O)c2nc(S(=O)(=O)Cc3ccccc3C)ncc2Cl)cc1C	24	i	-10	-5	-3	-16	-8	103*
O=C(COc1cccnc1[N+](=O)[O-])NCc1ccc2c(c1)OCO2	4	i	3	1	3	1	-1	-24
CCOc1ccccc1NC(=O)c1ccc(NC(=O)C2CCCO2)cc1 (stereo unspecified)	-8	.	-5	-3	-5	-7	-6	-10
c1ccc(N(c2ccccc2)c2nc(N3CCCC3)nc(-n3ccnc3)n2)cc1	-27	i	0	-22	-15	-14	4	101*
Cc1ccc(/C=C/c2nc3ccccc3c(=O)n2CCc2ccccc2)cc1	18	i	-1	-7	-7	-6	2	36
Cc1ccc(S(=O)(=O)Oc2ccc(/C=N/NC(=O)c3ccncc3)cc2)cc1	6	.	-5	0	-3	-17	-5	-6
CCN(CC)CCCNC(=O)CN1N=C(c2ccc(OC)cc2)CCC1=O	-30	i	12	5	8	-8	-5	-3
CCN(CC)S(=O)(=O)c1ccc(NC(=O)CN(c2cccc(F)c2)S(C)(=O)=O)cc1	-29	i	-7	1	-3	-12	4	.
COc1cccc(NC(=O)NCCCN2CCN(c3ccc(F)cc3)CC2)c1	.	i	4	-1	-1	-2	-15	18
COc1ccc(C2NC(=S)NC(C)=C2C(=O)N2CCOCC2)cc1 (stereo unspecified)	-8	i	-7	3	3	.	2	12
CN1C(C(=O)Nc2ccc(C(=O)O)cc2)=C(O)c2ccccc2S1(=O)=O	-8	.	.	-1	-1	8	.	-9
CNC(=S)NNC(=O)c1ccccc1Cl	-1	.	-12	2	-2	-17	-2	-2
CC(=O)N(C)[C@H]1C[C@@H](c2ccccc2)N(C(C)=O)C[C@H]1CO	8	.	.	3	3	-11	.	.
CCNC(=O)NC(C(=O)OC)C12CC3CC(CC(C3)C1)C2 (stereo unspecified)	.	i	-8	-3	3	6	-4	.
Oc1ccc(CN2CCCCC2)c2cccnc12	.	i	85*	-10	-5	-4	-11	23	eIF4H inh retest=81*;PABP FP inh retest=36
